# VDR inh – vitamin D3 receptor (human) inhibition. VDR-SRC2-3 peptide fluorescence polarization, 2 h. Potency, µM, without a hit: max response, negative = inhibition, usual class: inhibitors. 400,000 compounds, 0.93% hits. AID 504847; active = well fitted inhibition curve with a large enough effect; inconclusive = small, poorly fitted or top-dose-only effect, or another doubt; inactive = no such curve, though single readings can be large or run the other way; note: series mostly up to about 120 µM
# Target sequence (P11473 whole entry, looked up): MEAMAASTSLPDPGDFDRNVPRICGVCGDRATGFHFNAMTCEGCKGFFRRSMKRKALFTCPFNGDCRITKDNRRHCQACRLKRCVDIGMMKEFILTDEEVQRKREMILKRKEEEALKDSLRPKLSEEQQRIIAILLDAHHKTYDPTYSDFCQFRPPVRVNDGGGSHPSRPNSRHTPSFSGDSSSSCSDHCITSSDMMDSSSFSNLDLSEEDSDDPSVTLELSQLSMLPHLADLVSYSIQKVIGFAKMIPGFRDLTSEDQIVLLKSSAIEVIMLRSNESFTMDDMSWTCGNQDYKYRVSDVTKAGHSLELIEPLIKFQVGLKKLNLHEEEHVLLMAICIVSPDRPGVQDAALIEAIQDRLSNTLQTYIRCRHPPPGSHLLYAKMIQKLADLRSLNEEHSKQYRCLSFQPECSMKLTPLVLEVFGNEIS
#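 Measured by FP: displacement of SRC2-3 coactivator peptide from VDR by library compounds, following a two-hour ambient incubation.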
# * = called active by the depositor; ? = inconclusive. % is set by controls: 0 for no effect and ±100 for the full control effect; potency is the fitted concentration of half-maximal effect.
# Preview (14 entries):
SMILES,VDR inh
CCCOC(=O)c1c(NC(=O)CCC(=O)O)sc2c1CCCCC2,-17.8%
CCCC1NC(C(=O)O)Cc2c1[nH]c1ccccc21 (stereo unspecified),?
COc1ccccc1CNC(=O)c1cccc(Nc2nc3ccccc3n3nnnc23)c1,-11.5%
C=CCC1(N(C(C)=O)c2ccccc2C)CCCCC1,6.6%
CCCCCC(=O)N(O)C1CC(=O)N(c2ccccc2)C1=O (stereo unspecified),20µM*
OC(CNC1CCCCC1)CNC1CCCCC1,-11.4%
Cc1ccc(/C=C/C(=O)O)cc1S(=O)(=O)NCc1ccco1,6.3%
CC(=O)Nc1ccc(S(=O)(=O)C(C#N)c2nc3ccccc3nc2NCCCO)cc1 (stereo unspecified),4.6%
C=C(C)n1c(=O)[nH]c2ccccc21,-2.7%
CCOC(=O)Cn1c(=O)oc2cc(S(=O)(=O)NC3CCCCC3)ccc21,-1.4%
CCc1nnc(NC(=O)CSc2ncnc3c2cnn3-c2ccc(OC)cc2)s1,-3.0%
COc1ccc(CC(=O)NCCc2csc(-c3cccc(F)c3)n2)cc1OC,10.6%
O=C(N/N=C/c1cccnc1)C1CC1(c1ccccc1)c1ccccc1 (stereo unspecified),-9.9%
CCOc1ccc(S(=O)(=O)N2CCN(c3nc(-c4ccccc4)nc4ccccc34)CC2)cc1,5.2%

# This part in full, previewed entries included:
SMILES,VDR inh
CCCOC(=O)c1c(NC(=O)CCC(=O)O)sc2c1CCCCC2,-17.8%
CCCC1NC(C(=O)O)Cc2c1[nH]c1ccccc21 (stereo unspecified),?
COc1ccccc1CNC(=O)c1cccc(Nc2nc3ccccc3n3nnnc23)c1,-11.5%
C=CCC1(N(C(C)=O)c2ccccc2C)CCCCC1,6.6%
CCCCCC(=O)N(O)C1CC(=O)N(c2ccccc2)C1=O (stereo unspecified),20µM*
OC(CNC1CCCCC1)CNC1CCCCC1,-11.4%
Cc1ccc(/C=C/C(=O)O)cc1S(=O)(=O)NCc1ccco1,6.3%
CC(=O)Nc1ccc(S(=O)(=O)C(C#N)c2nc3ccccc3nc2NCCCO)cc1 (stereo unspecified),4.6%
C=C(C)n1c(=O)[nH]c2ccccc21,-2.7%
CCOC(=O)Cn1c(=O)oc2cc(S(=O)(=O)NC3CCCCC3)ccc21,-1.4%
CCc1nnc(NC(=O)CSc2ncnc3c2cnn3-c2ccc(OC)cc2)s1,-3.0%
COc1ccc(CC(=O)NCCc2csc(-c3cccc(F)c3)n2)cc1OC,10.6%
O=C(N/N=C/c1cccnc1)C1CC1(c1ccccc1)c1ccccc1 (stereo unspecified),-9.9%
CCOc1ccc(S(=O)(=O)N2CCN(c3nc(-c4ccccc4)nc4ccccc34)CC2)cc1,5.2%
COc1ccc(OCC(=O)Nc2ccc(Cl)cc2)cc1,7.9%
CCCNC(=O)CSc1nnc(-c2ccc(F)cc2)o1,-1.3%
COc1ccc(-c2nc(-c3ccccc3)c(-c3ccc(F)cc3)[nH]2)c(OC)c1C,-19.4%
CC(c1nccs1)N(C)C(=O)CCc1nnc(Cc2c[nH]c3ccccc23)o1 (stereo unspecified),-20.5%
CCCC[C@@H]1CNCCN1CCc1cc(C(F)(F)F)cc(C(F)(F)F)c1,7.7%
COC(=O)[C@]1(C)N[C@H](CN(C)C(=O)c2ccccc2)[C@@H]2C(=O)N(Cc3ccccc3)C(=O)[C@@H]21,0.6%
COc1cc(S(=O)(=O)N2CCOCC2)ccc1NC(=O)COC(=O)c1ccc(Cl)nc1,8.8%
Cc1ccc(C(=O)OCC(=O)Nc2ccc(C(N)=O)cc2)s1,-17.8%
O=C(NCC1CCCO1)C1CCCN(S(=O)(=O)c2ccc(Br)cc2)C1 (stereo unspecified),-5.8%
COC(=O)c1ccc(NC(=O)CN2CCN(CCO)CC2)cc1,-5.3%
NC(=O)c1cc[n+](Cc2ccc([N+](=O)[O-])cc2)cc1,-1.2%
O=C(Nc1ccc2nc(SCC(=O)N3CCc4ccccc43)sc2c1)c1cccc(F)c1,3.6%
Cc1cc(Cl)c(S(=O)(=O)N2CCCCCC2)cc1OCC(N)=O,-0.1%
CCN(CC)C(=O)CSc1nnc(-c2ccccn2)n1Cc1ccccc1,7.0%
CCOC(=O)N1CCC(N2Cc3cccc(C(=O)O)c3C2=O)CC1,-9.3%
Cc1cc(C)cc(NC(=O)CSc2nnc(-c3ccc(S(=O)(=O)N4CCCC4)cc3)o2)c1,14.4%
O=C(COC(=O)c1cc(S(=O)(=O)N2CCOCC2)ccc1O)Nc1ccc2c(c1)OCO2,10.0%
CCc1ccc2[nH]c(C(=O)Nc3ccc(C)c(F)c3)cc2c1,17.8%
COCCNC(=S)NN(c1ccccc1)c1ccccc1,-12.9%
O=C(Nc1cc(F)ccc1F)c1cccc(-n2cnnn2)c1,-11.9%
Cc1ccc2c(c1)C(c1ccc(F)cc1)N(C(=O)c1ccc(S(=O)(=O)N(C)C)cc1)CC(=O)N2 (stereo unspecified),11.5%
c1ccc2c(c1)ncn2CCOCCOCCn1cnc2ccccc21,-6.9%
NC(=O)c1cnn2c(C(F)(F)F)cc(-c3ccccc3)nc12,1.9%
CCSc1nnc(NC(=O)CSc2nccn2-c2cccc(C)c2)s1,16.4%
CCC1CCCCN1CCCNC(=O)C1CCN(S(=O)(=O)N2CCCCC2)CC1 (stereo unspecified),8.5%
COc1ccc(S(=O)(=O)N2CCOCC2)cc1C(=O)NCc1c(C)nn(Cc2ccccc2)c1C,3.8%
CC[C@]12c3[nH]c4ccc(Cl)cc4c3CCN1C(=O)[C@@H](CC(=O)NCCCOC)C[C@@H]2C(=O)N1CCN(C(=O)c2ccco2)CC1,-8.4%
Cc1cc2ncn(-c3ncnc4sc5c(c34)CCC(C)C5)c2cc1C (stereo unspecified),-0.4%
Cc1cccc(C(=O)C2CCN(S(=O)(=O)c3cccc(C(=O)O)c3)CC2)c1,-16.8%
O=C(O)c1ccc(-n2nnnc2SCc2ccccc2)cc1,2.2%
CC(=O)c1cn(CC(=O)NCc2ccco2)c2ccccc12,-0.3%
CCOc1ccc(C2c3[nH]c4ccccc4c3CCN2Cc2cn(CC)nc2C)cc1 (stereo unspecified),-7.8%
CCOC(=O)c1c(S(=O)(=O)NCCc2cccs2)c(C)n(C)c1C,-7.0%
Cc1cccc(-n2ncc3c(N4CCCCCC4)ncnc32)c1,13.4%
O=C(Nc1c(C(=O)Nc2ccc(F)cc2)oc2ccccc12)c1cc2ccccc2o1,-9.7%
COCCN(C(=O)CCSc1ccc(F)cc1)c1c(N)n(Cc2ccccc2)c(=O)[nH]c1=O,-12.0%

# (next part)
SMILES,VDR inh
CC1=C(/C=C/C(C)=C/C=C/C(C)=C/CO)C(C)(C)CCC1,?
Cc1ccc(Cn2c(=O)n(CCc3ccccc3)c(=O)c3sc4ccccc4c32)cc1,-7.0%
COc1ccc(C2C(C(=O)N3CC(C)CC(C)C3)c3ccccc3C(=O)N2C)cc1 (stereo unspecified),6.0%
COc1ccc(N2C(=O)C3C4c5ccccc5C(C=Nc5ccc(C)cc5C)(c5ccccc54)C3C2=O)cc1 (stereo unspecified),-5.7%
COC(=O)c1ccccc1NC(=O)c1cc(CN2CCOCC2)on1,-1.3%
CSc1nsc(SC)c1NC(=O)N1CCCC1,-18.6%
O=c1cc(N2CCN(c3ccccc3)CC2)[nH]c(=O)n1-c1ccccc1,14.0%
CCC(C)[C@H](NC(=O)Nc1ccccc1F)C(=O)O (stereo partly specified),-1.8%
CCC(=O)N1CCN(c2nc3ccc(Br)cc3s2)CC1,-17.0%
CC(=O)c1cccc(NC(=O)c2cc3c(s2)-c2c(C)cccc2OC3)c1,-3.9%
COc1ccc(OC)c(-c2csc(NC(=O)CN3C(=O)NC4(CCCC4)C3=O)n2)c1,0.3%
CCc1ccc2[nH]c(=O)c(Cc3ccccc3)c(O)c2c1,-6.7%
Cc1cc(NC(=O)CSCC(=O)N(c2cccc(Cl)c2)C(C(=O)NC2CCCCC2)c2ccc(O)c(O)c2)no1 (stereo unspecified),-20.9%
O=C(O)c1ccc(NC2CC(=O)N(Cc3ccccc3)C2=O)cc1 (stereo unspecified),-2.5%
CN(C(=O)c1cccc(S(=O)(=O)NCc2ccccc2)c1)C1CCCCC1,-5.2%
O=C(NCCCNC(=O)c1cnccn1)c1ccc(Br)cc1,1.6%
CCOC(=O)C1CCCN(C(=O)Cn2ncc3c(=O)oc4ccc(C)cc4c32)C1 (stereo unspecified),-11.1%
COCc1cc(CN2CCCC(CNC(=O)c3ccc(F)cc3)C2)ccc1OC (stereo unspecified),8.7%
COc1ccc(CNC(=O)Cc2c[nH]c3ccccc23)cc1OC,8.4%
Cc1ccc(C)c(NC(=O)CN(C)C(=O)COc2ccc3ccccc3c2)c1,-5.8%
CCOC(=O)c1sc(NC(=O)CSc2n[nH]c(CC(C)C)n2)nc1C,13.7%
CCN(C(=O)CSc1nnc(CNc2cccc(OC)c2)n1C1CCCCC1)C1CCS(=O)(=O)C1 (stereo unspecified),-13.7%
CN(C)c1ncc2nc(-c3ccc(F)cc3)c(=O)n(CCC#N)c2n1,5.4%
CC1(C)N=C(c2ccccc2)C(=O)N1,6.0%
CC(C)[C@H](NC(=O)c1ccccc1Cl)C(=O)NC1CCCCCC1,-19.9%
COc1ccc(OC)c(NC(=S)NCc2ccccc2OC)c1,-1.0%
Nc1nonc1-n1nnc(C(=O)N/N=C/c2cccc(O)c2)c1CN1CCCC1,14.7%
Cc1c(C)c(C)c(C(=O)c2ccc(NC(=O)c3ccccc3C(=O)O)cc2)c(C)c1C,-17.6%
Cc1c(C(=O)N2CCN(c3ccccc3)CC2)sc2ncnc(N3CCN(c4ccccn4)CC3)c12,10.8%
O=C(COC(=O)c1cccc(C(=O)OCC(=O)NCc2ccc(F)cc2)n1)NCc1ccc(F)cc1,7.5%
Nc1ncncc1-c1ccc([N+](=O)[O-])cc1,2.8%
Cc1ccc(Cn2ccsc2=NC(=O)COC(=O)c2ccc(NC(=O)CC#N)cc2)cc1,-7.1%
COC(=O)C(C)NC(=O)COc1ccc2ccccc2c1 (stereo unspecified),-6.5%
COc1cc(CN2CCNC(=O)C2CC(=O)O)cc(OC)c1 (stereo unspecified),-3.3%
Cc1ccc(NC(=O)c2ccc(=O)[nH]n2)cc1C,-8.7%
COC(=O)c1ccccc1S(=O)(=O)N1CCC(C(=O)NCCC2=CCCCC2)CC1,-19.6%
Cc1ccc(NC(=S)/C(=C(\[O-])c2ccc(Cl)s2)[n+]2cccc(CO)c2)cc1C,-3.3%
CCOC(=O)N1CCN(S(=O)(=O)N2CCCC(C(=O)NCc3cc(Br)ccc3OC)C2)CC1 (stereo unspecified),13.1%
COc1cc(C(=O)OCC(=O)NCc2ccccc2)cc(NC(=O)c2ccco2)c1OC,19.7%
Cn1ccnc1SCC(=O)n1c2c(c3ccccc31)CCCC2,-0.5%
O=C(NCc1cccc(Cl)c1)C1CCCN(c2ncnc3c2nc2n3CCCCC2)C1 (stereo unspecified),3.3%
NC(=O)CSc1ncnc2c1oc1ccccc12,-6.3%
O=C(NNC1CC(=O)N(c2cccc(Cl)c2)C1=O)c1cccnc1 (stereo unspecified),4.7%
Cc1ccc(C)c(OCCn2c(CCNC(=O)C3CCCCC3)nc3ccccc32)c1,15.3%
COc1cc2c(cc1OC)C(CC(=O)O)N(C(=O)CC1CCCC1)CC2 (stereo unspecified),-1.1%
O=S(=O)([N-]c1nc2ccccc2nc1-[n+]1ccccc1)c1ccc(F)cc1,3.6%
COc1ccc(NCc2cccn2-c2nnc(N3CCOCC3)s2)c(OC)c1,-4.6%
Clc1ccc(Cc2nc(-c3ccncc3)no2)cc1,0.4%
COc1ccc(S(=O)(=O)N(CC(=O)N2CCN(C)CC2)c2ccc(C)cc2)cc1Br,-6.0%
Cc1cc(C)c2oc(C(=O)Nc3ccc(S(=O)(=O)Nc4ncccn4)cc3)cc(=O)c2c1,16.8%

# The list continues.
SMILES,VDR inh
CCOC(=O)c1c(-c2ccccc2)oc2ccc(O)c(CN(C)C)c12,-1.2%
COc1ccc(N(C(=O)CNC(=O)c2ccco2)C(C(=O)NCC2CCCO2)c2ccccc2)cc1 (stereo unspecified),-11.2%
COc1ccc(/C=N\NC(=O)c2ccc(=O)[nH]n2)cc1O,-15.9%
C=CCC(Nc1ccccc1)c1cccc(OC)c1OC (stereo unspecified),4.7%
Cc1c(OCC(=O)C(C)(C)C)ccc2c(-c3ccccc3)cc(=O)oc12,-26.6%
COc1cc(C(=O)NCCSc2ccc(Cl)cc2)cc(OC)c1OC,-9.4%
O=C(O)CCCCCCCCCCCc1ccccc1,-12.6%
COC(=O)CCCC[C@@H]1SC[C@@H](NC(=O)OC)[C@@H]1NC(=O)OC,1.0%
Cc1ccc(-c2cc3nc(-c4ccc(Br)cc4)cc(N)n3n2)cc1,-9.3%
COC(=O)c1c(C(=O)OC)c2oc3ccccc3n2c1Cl,1.4%
Clc1ccc(-c2nnc(N3CCCC3)nn2)cc1,2.0%
COc1ccc2c(CNCc3ccc(C)o3)c(C(=O)O)n(Cc3ccccc3)c2c1,11.4%
CCOc1ccccc1C(=O)N/N=C/c1coc2ccc(C)cc2c1=O,-0.8%
Cc1cccc(-c2c3c(nc4c2c(=O)n(C)c(=O)n4C)-c2ccccc2C3O)c1 (stereo unspecified),5.7%
Cc1ccc(S(=O)(=O)NC(=O)Nc2cccc(C)n2)cc1,-2.5%
Cc1ccc(Cl)cc1N(C(=O)c1csnn1)C(C(=O)NC1CCCC1)c1ccco1 (stereo unspecified),2.0%
CCOC(=O)N1CCN(S(=O)(=O)c2cccc3nsnc23)CC1,-14.5%
CCC(=O)N1CCN(c2ccc(NC(=O)c3ccc(N4CCCC4)c([N+](=O)[O-])c3)cc2)CC1,-11.0%
COCCn1c(=NC(=O)C2COc3ccccc3O2)sc2cc(S(N)(=O)=O)ccc21 (stereo unspecified),-2.5%
Cn1c(C(O)c2ccc3c(c2)OCO3)nc2ccccc21 (stereo unspecified),2.0%
CCCCCCOC(=O)/C=C/c1c(C)[nH]c(=O)[nH]c1=O,-17.7%
O=C(NNC(=O)c1nn(-c2ccc(F)cc2)ccc1=O)Nc1cccc(Cl)c1,-4.3%

# High-throughput results as filed in PubChem BioAssay.

# This is a subset. The share of hits here may be higher or lower than overall.
